# miR-21 reporter: qHTS Assay for Modulators of miRNAs and/orActivators of miR-21; HeLa miR-21 FLuc reporter, luciferase, 48 h; Potency, µM (highest dose often 38.3 µM), without a hit: top-dose reporter change, positive = more light; 340,000 tested, under 10 active; AID 2288, 2010; active = well fitted rising curve with a large enough effect; inconclusive = small, poorly fitted or top-dose-only effect; inactive = no such curve, though single readings can be large or run the other way;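 further: % of control where 0% means no effect; miR-21 action dims this reporter so a rising signal means less miR-21 action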
#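 Compounds were titrated across several concentrations (up to approximately 40 uM) and incubated 48 hours with HeLa miR-21-FLuc reporter cells (miR-21 target sequence downstream of FLuc, endogenous miR-21). Readout was firefly luciferase luminescence after lytic detection reagent.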
# An asterisk follows results filed as active; ? = inconclusive. Some of the compounds tested. The share of hits here may be higher or lower than overall.
SMILES	miR-21 reporter
CCOC(=O)N1CCC2(CC1)OC(=O)C(C)=C2C(=O)NCc1ccccc1OC	-9%
Cc1oc2ccc(O)c(CN3CCOCC3)c2c1C(=O)Nc1cccc(Cl)c1C	-15%
Cc1ccc(C(=O)N2CCC(N3CCN(Cc4ccc(F)cc4)C(=O)C3=O)CC2)cc1	4%
COc1ccc(NC(=O)c2sc3nc4c(cc3c2N)CCCCCC4)cc1Cl	-11%
COc1ccc(CNC(=O)c2ccc3nc(CCc4ccccc4)oc3c2)c(OC)c1	-8%
O=C(CCn1c(=O)c2sccc2n(Cc2ccccc2F)c1=O)NCc1ccc2c(c1)OCO2	-1%
Cc1ccc(C)c(NC(=O)C(C)n2c(=O)cc(C(F)(F)F)c3c(C)nn(C)c32)c1 (stereo unspecified)	0%
Cc1[nH]n(-c2ccccc2)c(=O)c1C(c1cc(Cl)ccc1O)c1c(C)[nH]n(-c2ccccc2)c1=O	-1%
Cc1cccc(NC(=O)C(NS(=O)(=O)c2ccc3c(c2)oc(=O)n3C)C(C)C)c1 (stereo unspecified)	-4%
CCC(Oc1ccccc1)C(=O)Nc1ccc(O)c(-c2nc3cc(C)ccc3o2)c1 (stereo unspecified)	-10%
CCOc1ccc(Nc2nn(-c3ccc(OC(F)(F)F)cc3)nc2C(C)=O)cc1	7%
Cc1ccc(-n2nc(C(=O)NCc3ccc(F)cc3Cl)c3c4ccccc4n(C)c3c2=O)cc1	-5%
CCOC(=O)c1c(-c2ccccc2)oc2ccc(NS(=O)(=O)c3cc(C)c(C)cc3C)cc12	-3%
Cc1ccc(OCCCCn2nnc3sc4c(c3c2=O)CCCC4)cc1	8%
O=C(CCSCc1cccc(Cl)c1)NCc1ccc(F)cc1Cl	-3%
Cc1ccc(-n2ncc(C(=O)N3CCN(Cc4ccccc4)CC3)c2C2CCN(C(=O)OC(C)(C)C)CC2)cc1	0%
O=C(NCc1cccnc1)C1CCN(Cc2cc3ccccc3n2Cc2cccc(Cl)c2)CC1	22%
CCc1ccc(-c2nc3cc(NC(=O)c4ccc(F)cc4)ccc3o2)cc1	-10%
COc1ccc(-n2nnc(-c3nsc(NC(=O)c4ccc(C)c(C)c4)n3)c2C)cc1Cl	-11%
COCCCNC(=O)c1nn(-c2ccc(C)cc2)c(=O)n(C)c1=O	1%
COC(=O)c1cc2oc3ccccc3c2n1CC(=O)Nc1ccc(N(C)C)cc1	-18%
Cc1ccc(S(=O)(=O)c2nnn3c2nc(N2CCC(C)CC2)c2cc(Cl)ccc23)cc1C	3%
COc1ccc(C2C(C(=O)Nc3ccccc3)=C(C)Nc3c(C(=O)Nc4ccccc4)cnn32)cc1 (stereo unspecified)	26%
CCCOc1c(Cl)cc(C(=O)N(Cc2cccc(OC)c2)C2CCS(=O)(=O)C2)cc1Cl (stereo unspecified)	2%
O=C(CCNS(=O)(=O)c1cccc2nonc12)Nc1ccc(F)cc1	-1%
CCOC(=O)c1cc(-c2ccc(C)cc2)n(CC(=O)Nc2ccc(OC)cc2OC)c1C	-1%
Cc1ccc(NC(=O)c2sc3nc4c(cc3c2N)CN(Cc2ccccc2)CC4)cc1	-5%
CC(C)(C)OC(=O)N1CCC(c2c(C(=O)N3CCN(c4ccccn4)CC3)cnn2-c2ccccc2Cl)CC1	8%
O=C(Cn1nc2c(cc1=O)CCCC2)Nc1ccccc1C(F)(F)F	-5%
O=C(Cn1nc(-c2ccccc2)nc(Cc2ccccc2)c1=O)Nc1ccccc1	8%

# Taken from above:
# CCOC(=O)c1c(-c2ccccc2)oc2ccc(NS(=O)(=O)c3cc(C)c(C)cc3C)cc12 | miR-21 reporter = -3%
# O=C(CCSCc1cccc(Cl)c1)NCc1ccc(F)cc1Cl | miR-21 reporter = -3%

# (list continues)
SMILES	miR-21 reporter
Cc1ccc(C(=O)n2nc(C)c(S(=O)(=O)N3CCCCCC3)c2C)cc1	-2%
Cc1ccc(-c2nc3ccc(Cl)cn3c2Nc2ccc3c(c2)OCCO3)s1	-39%
CC1=C(C(=O)NCc2cccc(F)c2)C2(CCCCC2)OC1=O	3%
COc1cc(OC)c(NC(=O)c2cc3c(=O)oc4ccc(C)cc4c3s2)cc1Cl	-4%
COc1cccc(NC(=O)CSc2nnc(-c3cccc(OC)c3)o2)c1	-53%
CCN(CC)CCNC(=O)CN1N=C(c2ccc(OC)cc2)CCC1=O	4%
O=C(COc1ccc(Cl)cc1)Nc1nnc(S(=O)(=O)N2CCc3ccccc32)s1	-1%
CCOc1ccc(OCC)c(NC(=O)CCC(=O)N2CCOc3ccccc32)c1	-7%
Cc1ccc(-c2nnc(Nc3ccc(Br)cc3)c3ccccc23)cc1S(=O)(=O)N1CCOCC1	6%
Cc1ccc(-c2noc(-c3ccccc3NC(=O)C3CC(=O)N(c4ccc(C)cc4)C3)n2)cc1 (stereo unspecified)	-3%
O=C(COCc1cc(-c2ccc(F)cc2)on1)Nc1cccc(Cl)c1Cl	-11%
CCOC(=O)N1CCN(C(=O)c2ccc3c(c2)N(Cc2ccccc2F)C(=O)c2ccccc2S3(=O)=O)CC1	-1%
CCCCNC(=O)CSc1nc2cc3c(cc2c(=O)n1Cc1ccc(C(=O)NCCc2ccc(OC)c(OC)c2)cc1)OCO3	-4%
CC(NC(=O)C1CCN(S(=O)(=O)c2ccc(F)cc2)CC1)c1ccccc1 (stereo unspecified)	-6%
CCN1CCN(c2csc3ccc(Cl)cc3c2=O)CC1	-27%
COc1ccccc1-c1nnc(C2CCN(C(=O)c3cccc(C)c3)CC2)o1	-10%
Cc1cc(Nc2cccc(Cl)c2)nc2ccc(NC(=O)c3cccnc3)cc12	?
COc1cc(C(=O)Nc2cc(C)c(O)c(-c3nc4ccccc4s3)c2)cc(OC)c1OC	-4%
O=C(NCCc1ccccc1)c1ccc2c(c1)N(Cc1ccccc1)C(=O)c1ccccc1S2(=O)=O	-6%
COc1ccc(C(=O)NCC(c2cccnc2)N2CCc3ccccc32)cc1OC (stereo unspecified)	0%
Cc1cc(C)c2c(CC(=O)N3CCN(c4cccc(Cl)c4)CC3)coc2c1	-4%
COc1ccccc1N1CCN(c2ncccc2-c2nc(-c3ccc(Cl)cc3)no2)CC1	13%
O=C(c1cc(-c2ccc(Br)cc2)n[nH]1)N1CCN(S(=O)(=O)c2ccc(Br)s2)CC1	5%
Cc1ccc(NC(=O)Cn2cc3c(n2)CCCC3)c(Cl)c1	-19%
O=C(Nc1c(C(=O)N2CCN(c3ccccc3)CC2)oc2ccccc12)c1ccccc1F	6%
CC1=C(c2ccc(C)cc2)S(=O)(=O)N(Cc2ccc(C(=O)Nc3ccc(C)c(F)c3)cc2)C1=O	13%
COc1ccc(C2=C(N3CCN(c4cccc(C)c4)C(C)C3)c3ccccc3C2=O)cc1 (stereo unspecified)	27%
Cc1cccc(NC(=O)CSc2nc(-c3cccs3)cc(C(F)(F)F)c2C#N)c1C	8%
COc1cc2c(=O)n(CCC(=O)NCC3CCCO3)c(=O)n(CC(=O)Nc3c(C)cccc3C)c2cc1OC (stereo unspecified)	-9%
COc1cccc(CNC(=O)c2cc3c(=O)oc4ccc(C)cc4c3s2)c1	-1%
O=C1CC(c2nnc(Cc3c(F)cccc3Cl)o2)CN1c1ccccc1 (stereo unspecified)	-9%
CCN(CC)CCN(C(=O)c1ccco1)c1nc2ccc(Cl)cc2s1	-28%
CCOc1ccc(C(=O)Nc2ccc3oc(-c4ccc(Br)cc4)nc3c2)cc1	-2%
O=C(Cn1c(=O)c(C(F)(F)F)nc2ccccc21)Nc1ccc(Br)cc1F	-1%
CCOc1cc(C(=O)OCc2cc(=O)n3c(C)csc3n2)cc(OCC)c1OCC	-2%
COc1cccc(-n2ccn(CC(=O)c3ccc(F)cc3)c(=O)c2=O)c1	0%
CCC(C)NC(=O)CCSc1nc(-c2ccc3c(c2)OCO3)cc(C(F)(F)F)n1 (stereo unspecified)	5%
COc1ccc(/C=C/C(=O)Nc2sc(C)c(C)c2C(=O)O)cc1	?
COc1cc(OC)c(NC(=O)Nc2c(C)n(C)n(-c3ccccc3)c2=O)cc1Cl	6%
COc1cccc(OCc2cc(=O)n3c(-c4ccccc4)csc3n2)c1	-37%
CCc1ccc(NC(=O)c2cc(S(=O)(=O)N3CCCCC3)c[nH]2)cc1	-6%
O=C(Nc1ccc(Oc2ccccc2)cc1)c1ccc(F)c(S(=O)(=O)N2CCN(c3ccccc3F)CC2)c1	26%
COc1ccc2[nH]c(=O)c(CN(C(=O)c3cccc(Cl)c3)c3ccccc3OC)cc2c1	-4%
CCCCNc1sc(S(=O)(=O)CC)nc1S(=O)(=O)c1ccc(C)cc1	-6%
CCOc1ccc(CCNCc2c(C(=O)O)n(Cc3ccc(C)cc3)c3cc(OC)ccc23)cc1	28%

# 6 successive records out of the list so far, quoted:
SMILES	miR-21 reporter
O=C1CC(c2nnc(Cc3c(F)cccc3Cl)o2)CN1c1ccccc1 (stereo unspecified)	-9%
CCN(CC)CCN(C(=O)c1ccco1)c1nc2ccc(Cl)cc2s1	-28%
CCOc1ccc(C(=O)Nc2ccc3oc(-c4ccc(Br)cc4)nc3c2)cc1	-2%
O=C(Cn1c(=O)c(C(F)(F)F)nc2ccccc21)Nc1ccc(Br)cc1F	-1%
CCOc1cc(C(=O)OCc2cc(=O)n3c(C)csc3n2)cc(OCC)c1OCC	-2%
COc1cccc(-n2ccn(CC(=O)c3ccc(F)cc3)c(=O)c2=O)c1	0%

# (next part)
SMILES	miR-21 reporter
CN(C(=O)Cn1c(=O)n(Cc2ccc(C(=O)NCc3ccc4c(c3)OCO4)cc2)c(=O)c2ccccc21)c1ccccc1	25%
COc1ccc(CNC(=O)Cn2ccc3cc(S(=O)(=O)N4CCCCC4)ccc32)cc1OC	-6%
COc1ccc(-c2nc(CCNC(=O)Cc3ccc(F)cc3)cs2)cc1	-2%
CC(=O)c1cccc(-n2c(=O)c3c4c(sc3n(CC(=O)Nc3ccccc3F)c2=O)CN(C(C)=O)CC4)c1	-11%
CCC1CCCCN1C(=O)CSc1n[nH]c(-c2ccccc2Cl)n1 (stereo unspecified)	-34%
Cc1nc2sc(C(=O)N(C)Cc3ccccc3)c(NC(=O)c3ccccc3)c2c(C)c1Cl	1%
O=C(CSc1nc2c([nH]c3ccccc32)c(=O)n1-c1ccc(Cl)cc1)N1CCCCCC1	-5%
COc1ccc(CC(=O)NCCc2csc(-c3ccc(Cl)cc3)n2)cc1	13%
c1coc(-c2nc3n(n2)C2(CCCCC2)[C@@H]2CCCC[C@@H]2N3)c1	25%
CCC1CN(C(=O)C2CCN(S(=O)(=O)c3c(C)noc3/C=C/c3ccccc3F)CC2)c2cc(Cl)ccc2O1 (stereo unspecified)	-8%
CCOC(=O)COc1ccc([N+](=O)[O-])cc1-c1ccnc2cc(-c3ccc(Cl)cc3)nn12	0%
Cc1cc(F)ccc1S(=O)(=O)Nc1ccc2oc3c(c2c1)CC(C)CC3 (stereo unspecified)	17%
COc1ccc(OC)c(-c2nnc3n(Cc4ccc(C)cc4)c(=O)c4ccccc4n23)c1	-4%
CCC1=Nc2cc(C(=O)NCCc3ccccc3)ccc2Sc2ccc(Cl)cc21	23%
CCOc1ccc(CCNC(=O)c2c(C)oc3ncn(C)c(=O)c23)cc1	0%
COc1ccc(OC)c(NC(=O)[C@H](CSCc2ccccc2)N2Cc3ccccc3C2=O)c1	7%
CCNC(=O)CC1C(=O)N(c2ccccc2)C(=O)N1Cc1ccc(F)cc1 (stereo unspecified)	-1%
COc1cccc(CCNC(=O)Cn2c(-c3cccs3)cc3ccccc32)c1	-7%
COc1ccc(Cl)cc1NC(=O)CCc1c(C)nc2c(c1C)c(=O)n(C)c(=O)n2C	-2%
O=C(NCc1cccc(F)c1)c1ccc2nc(CCc3ccccc3)oc2c1	-29%
CNS(=O)(=O)c1cn(CC(=O)Nc2ccc(OC)c(Cl)c2)cc1S(=O)(=O)NC	-5%
COc1cc2nc(SCc3ccc(C)cc3)n3nc(CCn4nc(C)cc4C)nc3c2cc1OC	0%
Cc1ccc(S(=O)(=O)n2nc(C)c(S(=O)(=O)N3CCCCCC3)c2C)cc1C	-2%
Cc1ccc(C)c(NC(=O)CSc2ncc3c(n2)-c2ccc(Cl)cc2N(C)S3(=O)=O)c1	0%
CCCCOc1ccc(CNC(=O)C2COc3ccc(OC)cc3C2)cc1 (stereo unspecified)	-4%
CCOc1ccccc1NC(=O)C1=C(C)Nc2ncnn2C1c1ccco1 (stereo unspecified)	-6%
Cc1nn(C(C)C(=O)NCCc2ccccc2)c(=O)c2c1sc1ccccc12 (stereo unspecified)	-35%
Cc1nc2cc(C(=O)NC3CCCCCC3)ccc2n1-c1ccc(Br)cc1	4%
Cc1cc(C)cc(-n2ccn(CC(=O)Nc3ccccc3C(F)(F)F)c(=O)c2=O)c1	1%
COc1ccc(C(=O)NCc2ccc3c(c2)CCN3C(=O)c2ccc(C)cc2)cc1	13%
CCOc1ccc(CCNC(=O)c2cc3cccc4c3n2CCS4)cc1	7%
COc1cccc(CNC(=O)c2cc(C)nc3c2c(C)nn3-c2ccc(C)cc2)c1	12%
CCc1cccc(C)c1NC(=O)c1ccc2c(c1)CCN2S(=O)(=O)CC	1%
CCOC(=O)c1cccc(NC(=O)Cc2ccc(NC(=O)N3CCCCc4ccccc43)cc2)c1	-6%
O=C(Nc1cccc(C(=O)N2CCN(c3ccccc3F)CC2)c1)c1nsc2ccccc12	-17%
CC(C)c1nc2ccc(C(=O)NCCCN3CCN(c4ccc(F)cc4)CC3)cc2o1	15%
CCN(Cc1ccccc1)C(=O)CN1C(=O)COc2ccc(S(=O)(=O)N3CCOCC3)cc21	-2%
